# VDR inh: inhibitors of human vitamin D receptor; VDR-SRC2-3 peptide fluorescence polarization, 2 h; Potency, µM, without a hit: max response, negative = inhibition, usual class: inhibitors; 400,000 compounds, 0.93% hits; active means well fitted inhibition curve with a large enough effect; inconclusive means small, poorly fitted or top-dose-only effect, or another doubt; inactive means no such curve, though single readings can be large or run the other way; further: series mostly up to about 120 µM
# Target sequence (P11473 whole entry, looked up): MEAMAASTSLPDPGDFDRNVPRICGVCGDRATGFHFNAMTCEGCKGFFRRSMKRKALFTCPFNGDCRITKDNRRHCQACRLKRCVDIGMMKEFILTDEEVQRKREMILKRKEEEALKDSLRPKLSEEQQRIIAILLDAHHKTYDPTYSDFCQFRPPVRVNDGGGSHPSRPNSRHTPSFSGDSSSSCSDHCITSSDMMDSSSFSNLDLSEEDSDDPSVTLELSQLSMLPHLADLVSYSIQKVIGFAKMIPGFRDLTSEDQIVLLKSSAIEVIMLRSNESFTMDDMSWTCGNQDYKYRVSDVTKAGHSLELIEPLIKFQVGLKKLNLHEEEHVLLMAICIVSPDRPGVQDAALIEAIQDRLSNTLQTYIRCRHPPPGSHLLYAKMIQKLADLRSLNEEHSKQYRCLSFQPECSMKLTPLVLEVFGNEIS
#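 Two reagent solutions held at 4 deg C in the dark were dispensed, compounds pinned at 23 nl, and the mixture incubated 2 h at room temperature. Read-out: fluorescence polarization of VDR–SRC2-3 peptide binding.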
# * hit, by the source's call; u = inconclusive; & = joins results of further samples. On the % scale 0 is the no-effect control and ±100 the full control effect; potency means the concentration at half of the fitted maximal effect.
VDR inh | Compound
-18% | O=[N+]([O-])c1cc([N+](=O)[O-])c(Oc2cc(F)cc(F)c2F)cc1NN1CCCCC1
-2% | Cc1ccc2[nH]c3c(=O)n(Cc4ccccn4)cnc3c2c1
-1% | O=C(OCC(=O)N1CCCCCC1)c1ccc([N+](=O)[O-])cc1Cl
-12% | O=C1CCCC2=C1C(O)(C(F)(F)F)C(=O)N2Cc1ccccc1 (stereo unspecified)
-10% | Clc1ccccc1OCc1nn[nH]n1
8% | COc1ccc(S(=O)(=O)Nc2ccccc2C(=O)N2CCOCC2)cc1OC
19% | O=C(Cn1cncn1)N/N=C/c1ccccc1O
-3% | Cc1n[nH]c(C)c1S(=O)(=O)N1CCN(C2CCCCC2)CC1
3% | CC1=Nc2ccccc2/C1=C/c1c(C)[nH]c2ccccc12
1% | CCN(CC)c1cc2nc(C)n(Cc3ccccc3)c(=O)c2cc1NC(=O)C1CC1
6% | CN(C(=O)c1cccc(C#N)c1)c1nnc(-c2cnccn2)s1
-7% | Cc1ccc(C)c(OCC(O)CN2CCC(CN3C(=O)c4cccc5cccc(c45)C3=O)CC2)c1 (stereo unspecified)
-7%&-2% | Nc1nc(NCc2ccc(Cl)c(Cl)c2)c2[nH]cnc2n1
-17% | COc1ccc(CSc2nnnn2C)cc1F
u | O=C(O)Cc1cc(I)c(Oc2ccc(O)c(I)c2)c(I)c1
10% | COCCCNS(=O)(=O)c1ccc(Oc2ncc(C(F)(F)F)cc2Cl)cc1
-5% | FC(F)C(F)(F)Oc1cccc(-c2n[nH]c(=S)n2Cc2ccccc2)c1
-16% | COc1ccc(SC[C@H](Cc2ccccc2)N2CC[C@@H](NC(=O)OCc3ccccc3)CCC2=O)cc1
28µM* | Cc1ccc(-c2ccc(/C=C3\C(=O)ON=C3c3ccccc3)o2)c([N+](=O)[O-])c1
12% | O=C(CCc1nnc(CCCCc2ccccc2)o1)NCCC1CCCCO1 (stereo unspecified)
-10% | CCOc1ccc(N(CC(=O)O)S(=O)(=O)c2ccc(F)cc2)cc1
8% | CC(C)CCNC(=O)c1ccc(Cn2c(SCC(N)=O)nc3ccccc3c2=O)cc1
17% | COc1ccc(/C=N\NS(=O)(=O)c2ccc(C)cc2)cc1COc1ccccc1[N+](=O)[O-]
-9% | CC(=O)c1ccc(NC(=O)/C(C#N)=C/c2ccncc2)cc1
-6% | COc1cc(C(=O)Nc2ccc(C)cc2C(NCC(=O)NN)c2ccccc2)cc(OC)c1OC (stereo unspecified)
-2% | Cc1ccc(C)c(N2C(=O)CN=C2Nc2ccccc2Cl)c1
-3% | COc1ccc(S(=O)(=O)N2CCCCCC2)cc1C(=O)N(C)Cc1c(F)cccc1Cl
-2% | CCOCC(=O)Nc1ccc(F)c(F)c1
-5% | Cc1nc2ccc(S(=O)(=O)Nc3cccc(-c4nc5cccnc5s4)c3)cc2s1
-9% | O=C(c1cccc(-c2ccccc2F)c1)N1CC[C@@H](N2CCC(O)CC2)[C@H](O)C1
-4% | CCCCN1CCC(COC(=O)c2cc(Cl)c(N)c3c2OCCO3)CC1
9% | COc1cc(NC(=S)NC(=O)c2cc(C)cc(C)c2)ccc1NC(=O)c1cccs1
9% | CC(CN1CCCCC1)OC(=O)Cc1ccc(Cl)cc1 (stereo unspecified)
0% | Cc1csc(=NC(=O)c2ccccc2)n1CCO
-11% | O=C1CN(C(=O)/C=C/c2ccco2)c2ccccc2N1
0% | CC(NC(=O)CN(C)CC(=O)Nc1cccc(F)c1)c1ccccc1 (stereo unspecified)
-9% | COc1ccc(/C=C(\NC(=O)c2ccc(C)cc2)C(=O)NCCN2CCOCC2)cc1
0% | COC(=O)c1[nH]c2c(c1C)C(=O)CC(c1ccc(OC)cc1)C2 (stereo unspecified)
-4% | CCc1nnc(NC(=O)CSc2nc(C)nc3c2c(=O)n(C)c(=O)n3C)s1
-5% | CCOc1c2ccc(C(=O)N[C@H](C)C3CCCCC3)cc2nn1CCOC
3% | CCCCN(CCCNC(=O)C1CCN(S(=O)(=O)N2CCOCC2)CC1)Cc1ccccc1
7% | Cc1noc(C)c1C(=O)Nc1ccc(F)c(F)c1
-12% | CCN(CC)S(=O)(=O)c1ccc2c(c1)c(=O)c(C(=O)N1CCN(c3cc(C)ccc3C)CC1)cn2C
3% | COc1ccc(NS(=O)(=O)c2ccc3c(c2)N(C(C)=O)CCO3)c(OC)c1
-3% | Cc1nn(C)c(Oc2ccc(Cl)cc2)c1C(=O)Nc1ccc(F)cc1F
2% | CCc1nnc(NC(=O)c2cc(S(=O)(=O)N(C)c3ccc(OC)cc3)ccc2Cl)s1
-3% | CC1CCCC(NC(=O)COC(=O)CCSc2ccccc2)C1C (stereo unspecified)
-3% | CCOc1ccc(Sc2cc(C(=O)NC(C)CC)c3ccccc3n2)cc1 (stereo unspecified)
-6% | CC(=O)N1C(=S)NC(=O)/C1=C1/C(=O)N(CC(=O)Nc2cccc(C)c2)c2ccccc21
-8% | Cc1ccc(Cn2nnc3c(=O)[nH]c(C4CCCN(S(=O)(=O)c5ccccc5)C4)nc32)cc1 (stereo unspecified)

# Going on with the list:
VDR inh | Compound
-6% | COCCn1c(=O)c(-c2ccccc2)nc2cnc(N3CCN(C)CC3)nc21
-5% | CCN(CCCNC(=O)CSc1cc(=O)n(C)c2ccccc12)c1ccccc1
19% | Cc1ccc(CN2CCN(/N=C/c3cc([N+](=O)[O-])ccc3Cl)CC2)cc1
u | CC(C)(C)NC(=O)C[C@H]1C[C@H](C(=O)N2CCCCC2)[C@@]2(C)c3[nH]c4cc(-c5ccco5)ccc4c3CCN2C1=O
-9% | Cc1cccn2c(=O)c(C(=O)NCc3ccc(F)cc3)c(O)nc12
-7% | CC(=O)Oc1ccc(C(=O)Nc2ccccc2C(=O)Nc2ccc(C(=O)O)cc2)cc1
-16% | O=C(NN1C(=O)C2C3C=CC(O3)C2C1=O)c1cccc(O)c1 (stereo unspecified)
1% | COc1ccccc1CCNC(=O)C(=O)NCC(c1cccs1)S(=O)(=O)c1ccccc1 (stereo unspecified)
-10% | COc1cccc(-n2c(=O)[nH]cc(C(=O)Nc3ccc(NC(C)=O)cc3)c2=O)c1
-15% | O=C(Nc1cccc(Cl)c1Cl)Nn1cnnc1
-15% | CC1CC(C)CN(CCCNC(=O)c2cn(C)c3ccc(S(=O)(=O)N4CCCC4)cc3c2=O)C1 (stereo unspecified)
-10% | CN1CCN(c2ccc(NC(=O)c3ccc(Br)o3)cc2)CC1
7% | C=CCN(c1ccccc1)S(=O)(=O)c1cccc(C(=O)N(CC)CC(=O)Nc2c(F)cccc2F)c1
-4% | COc1ccc2ccccc2c1/C=N/NC(=O)c1sc(N)c(C#N)c1C
18% | N=c1c2c(ncn1CCCO)Oc1ccc3ccccc3c1C2c1ccccc1 (stereo unspecified)
15% | CCCCCOC(=O)c1ccc(OC(=O)c2sc3ncn(Cc4cccc(F)c4)c(=O)c3c2C)cc1
3% | S=c1[nH]nc(COc2ccc(Cl)cc2Cl)n1-c1ccccc1
-3% | COc1ccccc1N(CC(=O)NCC(C)C)S(=O)(=O)c1cccs1
-8% | CC(=O)NC1(c2ccccc2)CCN(c2cc(C)nc(-c3ccccc3)n2)CC1
-7% | O=C(N/N=C/c1ccc(Br)o1)c1ccc2c(c1)OCCO2
-1% | CCN(C(=O)CSc1nc(C)nc2sc3c(c12)CCC3)C1CCS(=O)(=O)C1 (stereo unspecified)
2% | CN(C)CCCN(C(=O)c1sc2ccccc2c1Cl)c1nc2ccc(F)cc2s1
-4% | CN=C(Nc1ccc2c(c1)OCO2)SC1CC(=O)N(c2ccccc2)C1=O (stereo unspecified)
-14% | COc1ccc(C(=O)/C=C/N(C)C)cc1OC
-1% | Cn1c(=O)c2c(nc3n2CCS3)n(C)c1=O
15% | CC1CCCN(C(=O)c2cc(S(=O)(=O)N3CCCCC3)c[nH]2)C1 (stereo unspecified)
-12% | CCOC(=O)C1=C(C)NC(=O)NC1c1ccc(OC)c(Cl)c1 (stereo unspecified)
-9% | OCC1(Cc2ccc(F)cc2F)CCCN(Cc2ccc(Cl)cc2)C1 (stereo unspecified)
-17% | CCOC(=O)C(NCc1ccc(OC)cc1)(NC(C)=O)C(F)(F)F (stereo unspecified)
-17% | COc1ccc(S(=O)(=O)N2CCCC(C(=O)Nc3cccnc3)C2)cc1Cl (stereo unspecified)
-25% | O=C(NCCCN1CCN(Cc2ccccc2)CC1)C1CCN(S(=O)(=O)N2CCC3(CC2)OCCO3)CC1
0% | COc1cccc2c(=O)cc(C)n(CC(=O)Nc3ccccc3C)c12
-7% | COc1ccc([C@H]2CC(=O)C=C(c3ccc4ccccc4c3)C2)cc1OC
5% | Cc1occc1-c1nnc(SCC(=O)N2CCc3ccccc32)o1
-1% | CN(C)c1ccc(CNC(=O)C2CCCN(S(=O)(=O)c3ccc4c(ccn4C)c3)C2)cc1 (stereo unspecified)
15% | O=C(CSc1nc2ccccc2c(=O)n1-c1ccc(F)cc1)NCc1ccco1
u | COCCn1nnnc1SCC(=O)c1ccc(F)cc1
2% | CCC(=O)Nc1c(C(=O)N2CCN(c3ccccn3)CC2)cnn1-c1ccc(C)cc1
13% | Cc1ccccc1Cn1nc(C)c(NC(=O)c2nc3n(n2)C(C(F)F)CC(C)N3)c1C (stereo unspecified)
-14% | CC(C)c1c(Cl)c(O)c(-c2ccccc2)c(=O)n1-c1ccc(F)cc1
0% | CC(CNS(=O)(=O)c1cc(Cl)ccc1Cl)CN(C)C (stereo unspecified)
3% | CCOC(=O)C1CCN(S(=O)(=O)c2cc(-c3onc(C)c3C)ccc2C)CC1
11% | Cn1c(=O)[nH]c2c(nc(-c3ccc(Cl)cc3)n2C)c1=O
-5% | Cc1ccc(-c2cc(-c3ccccc3)no2)cc1
3% | CCOc1ncccc1C(=O)NCc1ccc(C)cc1
-10% | Cn1c(SCC(=O)Nc2ccc(F)cc2)nnc1C1CC1
-13% | Cc1ccc(C(=O)Nc2ccc(-c3csc(C)n3)cc2)cc1
8% | O=C1C(Cc2ccccc2)Nc2ncnc(N3CCN(c4ccccc4)CC3)c2N1Cc1ccc(Br)cc1 (stereo unspecified)
-15% | CCOc1ccc(NC(=O)CNC(=O)COc2ccccc2)cc1
-22% | O=C(CN(c1cccc([N+](=O)[O-])c1)S(=O)(=O)c1ccccc1)N(Cc1ccccc1)Cc1ccccc1

# The closing 7 records of the section above lead into the next.
VDR inh | Compound
-5% | Cc1ccc(-c2cc(-c3ccccc3)no2)cc1
3% | CCOc1ncccc1C(=O)NCc1ccc(C)cc1
-10% | Cn1c(SCC(=O)Nc2ccc(F)cc2)nnc1C1CC1
-13% | Cc1ccc(C(=O)Nc2ccc(-c3csc(C)n3)cc2)cc1
8% | O=C1C(Cc2ccccc2)Nc2ncnc(N3CCN(c4ccccc4)CC3)c2N1Cc1ccc(Br)cc1 (stereo unspecified)
-15% | CCOc1ccc(NC(=O)CNC(=O)COc2ccccc2)cc1
-22% | O=C(CN(c1cccc([N+](=O)[O-])c1)S(=O)(=O)c1ccccc1)N(Cc1ccccc1)Cc1ccccc1
12% | C=CCNc1c2c(nc3nnnn13)CCCC2
-17% | Cc1ccc(OCCCn2cc(C#N)c3ccccc32)cc1
13% | Cc1ccccc1OCc1ccc(-c2nc(C#N)c(NCCCN(C)C)o2)o1
-19%&11% | Cc1ccc(N2CC(C(=O)NCCS(=O)(=O)N3CCN(c4ccc(F)cc4)CC3)CC2=O)cc1 (stereo unspecified)
5% | COCCCNC(=O)c1ccc(S(=O)(=O)c2ccc(C)cc2)c(NC(C)=O)c1
-2% | O=C(Nc1cc(Cl)ccc1-n1cncn1)c1ccccc1OC(F)F
-5% | Cc1ccc(NC(=O)N2CCCc3ccccc32)cc1
u | O=C(NCCSc1c[nH]c2ccccc12)c1ccco1
9% | O=C(O)c1ccc2nc(CO)[nH]c2c1
1% | Cc1nn(C)c(C)c1NC(=O)COc1ccccc1C#N

# Shown with each value named: entries from further up
> CC1CC(C)CN(CCCNC(=O)c2cn(C)c3ccc(S(=O)(=O)N4CCCC4)cc3c2=O)C1 (stereo unspecified)
  VDR inh: -15%

> CN1CCN(c2ccc(NC(=O)c3ccc(Br)o3)cc2)CC1
  VDR inh: -10%

> C=CCN(c1ccccc1)S(=O)(=O)c1cccc(C(=O)N(CC)CC(=O)Nc2c(F)cccc2F)c1
  VDR inh: 7%

# Next section
VDR inh | Compound
7% | O=c1c2ccccc2cnn1Cc1nnc(-c2cccs2)o1
-2% | C=CCN1C(=O)/C(=C\c2ccc(OC(=O)c3ccco3)c(OC)c2)SC1=S
6% | CCN1CCCC1CNC(=O)Cn1cc2c(n1)CCC(C)C2 (stereo unspecified)
8% | CC1=CC(C)(C)[N+](C)(C)c2ccc(C)cc21
-8% | O=C(c1ccccc1)c1ccc(Oc2ccc([N+](=O)[O-])cc2[N+](=O)[O-])cc1
-1% | Cc1ccc(-c2nnc(CCC(=O)NCc3csc(C)n3)o2)s1
15% | CC(=O)c1cccc(NC(=O)/C(=C\c2cccnc2)NC(=O)c2ccco2)c1
2% | N/C(=N\OC(=O)c1ccco1)c1cccc(Br)c1
-27% | CCOc1cc(-c2nc(C)c(C(C)=O)n2O)ccc1OCC(=O)Nc1ccc(F)cc1
12% | CCCC(=O)Nc1ncnc2c1ncn2[C@@H]1O[C@@H]2OP(=O)(O)OC[C@H]2[C@H]1OC(=O)CCC
-4% | CCOc1ccc(C(=O)Nc2c(C(=O)N3CCN(c4ccccc4F)CC3)oc3ccccc23)cc1
-2% | Cc1cc(O)c(C(C)C)cc1NC(=O)c1cccc(Cl)c1
-17% | Cc1ccc(S(=O)(=O)N(C)C)cc1NC(=O)COC(=O)CN1C(=O)c2ccccc2C1=O
19% | CCC(=O)N1CCc2cc(CNC(=O)Nc3cc(C)ccc3C)ccc21
3% | CC(=O)N1CSCC1C(=O)N1CCN(c2ccc(N3CCOCC3)nn2)CC1 (stereo unspecified)
u | CC(C)CCNC(=O)NC(=O)COC(=O)/C=C/c1cc(Br)ccc1F
-12% | CCOC(=O)C1(C)NC(c2ccco2)C2C(=O)N(c3ccc(C)cc3)C(=O)C21 (stereo unspecified)

# Assay outcomes: PubChem, National Center for Advancing Translational Sciences (NCATS)

# Some of the compounds tested; count on the stated rates, not on these rows.
